Screening results as filed in PubChem BioAssay.
Ran importin – inhibitors of Ran–importin-beta complex formation, primary screen, biochemical, CFP-Ran/YFP-importin-beta FRET, RCC1, cell-free (AID 434961). Regulator of chromosome condensation (Homo sapiens) + GTP-binding nuclear protein Ran …. CFP-Ran/YFP-importin-beta FRET, cell-free; stronger effect = higher value. inhibition, %. 7,700 tested, 0.2% active;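 active = more than half of the replicate wells above 15% inhibition; inconclusive = exactly half above it; inactive = fewer than half above it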;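 also: 0% = DMSO wells and 100% inhibition = RanGDP control wells on each plate; stock of unstated strength diluted about 400-fold; mean of two wells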
The depositor's hits bear a star; ? = inconclusive. The list is partial; rates above refer to the full screens.

Start of the listing, in advance (2 entries):
#	Ran importin	structure
1	2.5	C[C@@H]1CN([C@@H](C)CO)C(=O)c2cccc(NC(=O)c3ccc(-c4nccs4)cc3)c2O[C@H]1CN(C)S(=O)(=O)c1cn(C)cn1
2	1.3	C[C@@H]1CN([C@@H](C)CO)C(=O)c2cc(N(C)C)ccc2O[C@H]1CN(C)Cc1ccc2c(c1)OCO2

The whole of this part, repeating the preview:
#	Ran importin	structure
1	2.5	C[C@@H]1CN([C@@H](C)CO)C(=O)c2cccc(NC(=O)c3ccc(-c4nccs4)cc3)c2O[C@H]1CN(C)S(=O)(=O)c1cn(C)cn1
2	1.3	C[C@@H]1CN([C@@H](C)CO)C(=O)c2cc(N(C)C)ccc2O[C@H]1CN(C)Cc1ccc2c(c1)OCO2
3	1.5	C[C@@H]1CN([C@@H](C)CO)C(=O)c2cc(NC(=O)Cc3ccccc3)ccc2O[C@H]1CN(C)C
4	-0.1	C[C@@H]1CN([C@@H](C)CO)C(=O)c2cc(NC(=O)Nc3ccc(F)cc3)ccc2O[C@H]1CN(C)C(=O)NC1CCCCC1
5	-7.8	COc1ccc(CN(C)C[C@H]2Oc3ccc(NC(=O)Nc4ccc5c(c4)OCO5)cc3CC(=O)N([C@@H](C)CO)C[C@@H]2C)cc1
6	8.1	C[C@H](CO)N1C[C@H](C)[C@@H](CN(C)S(=O)(=O)c2ccccc2)Oc2ccc(N(C)C)cc2C1=O
7	-2.4	C[C@H](CO)N1C[C@H](C)[C@H](CN(C)C(=O)Nc2ccccc2)Oc2ncc(/C=C/c3ccccc3)cc2C1=O
8	-1.7	Cc1noc(C)c1NC(=O)N(C)C[C@H]1Oc2ccc(NC(=O)C3CC3)cc2C(=O)N([C@H](C)CO)C[C@@H]1C
9	-1.6	C[C@H]1CN([C@@H](C)CO)C(=O)c2cc(NC(=O)c3ccncc3)ccc2O[C@H]1CN(C)C(=O)NC1CCCCC1
10	1.5	C[C@@H]1CN([C@H](C)CO)C(=O)c2cccc(NC(=O)Nc3cccc4ccccc34)c2O[C@@H]1CN(C)Cc1ccc2c(c1)OCO2
11	-3.2	C[C@@H]1CCCCO[C@H](CN(C)C)[C@@H](C)CN([C@@H](C)CO)C(=O)c2cc(NC(=O)c3ccncc3)ccc2O1
12	0.7	C[C@H](CO)N1C[C@H](C)[C@H](CN(C)S(=O)(=O)c2cccs2)Oc2c(NC(=O)c3ccc(-c4nccs4)cc3)cccc2C1=O
13	0.2	Cc1ccc(OC(=O)N(C)C[C@H]2OCc3cn(nn3)CCCC(=O)N([C@H](C)CO)C[C@@H]2C)cc1
14	2.9	C[C@H]1CCCCO[C@H](CN(C)C(=O)c2ccncc2)[C@@H](C)CN([C@@H](C)CO)C(=O)c2cc(N(C)C)ccc2O1
15	-0.5	CC(C)NC(=O)Nc1ccc2c(c1)C(=O)N([C@H](C)CO)C[C@@H](C)[C@@H](CN(C)C(=O)c1ccncc1)OCCCC[C@H](C)O2
16	-2.5	C[C@@H]1CCCCO[C@@H](CN(C)Cc2ccccc2)[C@@H](C)CN([C@H](C)CO)C(=O)c2cc(NS(=O)(=O)c3ccccc3)ccc2O1
17	-0.7	C[C@@H]1CN([C@H](C)CO)C(=O)c2cccc(NC(=O)C3CCOCC3)c2O[C@H]1CN(C)Cc1ccc(Cl)c(Cl)c1
18	3.0	Cc1noc(C)c1S(=O)(=O)N(C)C[C@H]1Oc2ccc(NC(=O)c3ccncc3)cc2CC(=O)N([C@H](C)CO)C[C@H]1C
19	-1.6	Cc1noc(C)c1NC(=O)N(C)C[C@H]1OCCCC[C@@H](C)Oc2ccc(N(C)C)cc2C(=O)N([C@@H](C)CO)C[C@@H]1C
20	6.6	Cc1noc(C)c1NC(=O)N(C)C[C@@H]1Oc2c(NC(=O)c3cnccn3)cccc2C(=O)N([C@H](C)CO)C[C@@H]1C
21	-4.9	CC(C)NC(=O)Nc1ccc2c(c1)C(=O)N([C@@H](C)CO)C[C@@H](C)[C@H](CN(C)C(=O)c1ccncc1)OCCCC[C@@H](C)O2
22	2.3	C[C@@H]1CCCCO[C@@H](CN(C)S(=O)(=O)c2ccccc2)[C@H](C)CN([C@H](C)CO)C(=O)c2cc(NC(=O)CCCN(C)C)ccc2O1
23	-1.5	C[C@@H]1CN([C@H](C)CO)C(=O)c2cccc(NS(=O)(=O)c3cn(C)cn3)c2O[C@H]1CN(C)Cc1ccc(C(F)(F)F)cc1
24	5.2	C[C@H]1CN([C@@H](C)CO)C(=O)c2cc(NC(=O)NC3CCCCC3)ccc2O[C@@H]1CN(C)S(=O)(=O)c1ccccc1
25	-3.1	Cc1noc(C)c1NC(=O)N(C)C[C@@H]1Oc2ccc(NC(=O)Nc3cccc4ccccc34)cc2C(=O)N([C@H](C)CO)C[C@@H]1C
26	-7.4	COc1ccc(S(=O)(=O)N(C)C[C@H]2Oc3c(NC(=O)C4CCOCC4)cccc3C(=O)N([C@@H](C)CO)C[C@@H]2C)cc1
27	3.3	CC(C)NC(=O)N(C)C[C@H]1OCCCC[C@H](C)Oc2ccc(NS(=O)(=O)c3ccccc3)cc2C(=O)N([C@@H](C)CO)C[C@@H]1C
28	5.5	CNC[C@@H]1OCCCC[C@@H](C)Oc2ccc(NS(=O)(=O)c3cn(C)cn3)cc2C(=O)N([C@@H](C)CO)C[C@@H]1C
29	7.5	C[C@H]1CN([C@@H](C)CO)C(=O)c2cc(NC(=O)Nc3ccc(F)cc3)ccc2O[C@@H]1CN(C)C(=O)NC1CCCCC1
30	4.1	Cc1noc(C)c1S(=O)(=O)Nc1ccc2c(c1)C(=O)N([C@H](C)CO)C[C@@H](C)[C@H](CN(C)C(=O)Nc1ccccc1)O2
31	3.5	C[C@H](CO)N1C[C@H](C)[C@@H](CN(C)C(=O)Nc2cccc3ccccc23)Oc2c(NS(C)(=O)=O)cccc2C1=O
32	-0.2	C[C@H]1CN([C@@H](C)CO)C(=O)Cc2cc(NC(=O)NC3CCCCC3)ccc2O[C@H]1CN(C)C(=O)NC1CCCCC1
33	-1.3	Cc1noc(C)c1NC(=O)N(C)C[C@H]1Oc2ccc(NC(=O)Nc3ccc4c(c3)OCO4)cc2CC(=O)N([C@H](C)CO)C[C@@H]1C
34	-1.8	CNC[C@@H]1Oc2c(NS(=O)(=O)c3ccc(Cl)cc3)cccc2C(=O)N([C@H](C)CO)C[C@H]1C
35	-0.9	C[C@H]1CN([C@@H](C)CO)C(=O)CCCn2cc(nn2)CO[C@H]1CN(C)C(=O)Nc1ccc(N2CCCCC2)cc1
36	-3.2	Cc1noc(C)c1S(=O)(=O)N(C)C[C@@H]1Oc2ccc(NC(=O)Nc3ccc(C(F)(F)F)cc3)cc2CC(=O)N([C@H](C)CO)C[C@@H]1C
37	-0.9	C[C@H](CO)N1C[C@H](C)[C@H](CN(C)Cc2ccncc2)Oc2ncc(C#CCC3CCCC3)cc2C1=O
38	1.4	C[C@H]1CN([C@@H](C)CO)C(=O)Cc2cc(NC(=O)C3CC3)ccc2O[C@@H]1CN(C)C(=O)Nc1cccc2ccccc12
39	-2.0	Cc1noc(C)c1S(=O)(=O)Nc1cccc2c1O[C@@H](CN(C)Cc1ccc(C(=O)O)cc1)[C@@H](C)CN([C@H](C)CO)C2=O
40	-3.9	C[C@H]1CN([C@@H](C)CO)C(=O)c2cccc(NC(=O)Nc3cccc4ccccc34)c2O[C@@H]1CN(C)S(=O)(=O)c1ccc(Cl)cc1
41	5.5	COc1ccc(S(=O)(=O)Nc2cccc3c2O[C@H](CN(C)Cc2ccc(C(F)(F)F)cc2)[C@H](C)CN([C@H](C)CO)C3=O)cc1
42	3.6	C[C@@H]1CCCCO[C@@H](CN(C)C(=O)c2ccccc2)[C@H](C)CN([C@H](C)CO)C(=O)c2cc(NS(=O)(=O)c3cn(C)cn3)ccc2O1
43	1.9	COc1ccc(NC(=O)Nc2ccc3c(c2)CC(=O)N([C@H](C)CO)C[C@H](C)[C@H](CN(C)S(=O)(=O)c2ccc(Cl)cc2)O3)cc1
44	-5.8	C[C@@H]1CCCCO[C@@H](CN(C)Cc2ccncc2)[C@@H](C)CN([C@H](C)CO)C(=O)c2cc(NS(C)(=O)=O)ccc2O1
45	5.0	CNC[C@@H]1OCCCC[C@@H](C)Oc2ccc(NC(=O)c3ccncc3)cc2C(=O)N([C@H](C)CO)C[C@@H]1C
46	0.9	Cc1noc(C)c1S(=O)(=O)Nc1ccc2c(c1)C(=O)N([C@@H](C)CO)C[C@H](C)[C@@H](CN(C)C(=O)Nc1ccccc1)OCCCC[C@H](C)O2
47	0.1	C[C@@H]1CN([C@@H](C)CO)C(=O)c2cccc(NC(=O)c3cnccn3)c2O[C@H]1CN(C)C(=O)Nc1cccc2ccccc12
48	-1.8	C[C@@H]1CN([C@@H](C)CO)C(=O)CCCn2nncc2CO[C@H]1CN(C)Cc1ccccc1
49	-0.8	C[C@@H]1CN([C@H](C)CO)C(=O)Cc2cc(NS(=O)(=O)c3cccs3)ccc2O[C@H]1CN(C)Cc1ccccc1
50	7.6	CC(C)NC(=O)Nc1cccc2c1O[C@H](CN(C)Cc1ccc(Oc3ccccc3)cc1)[C@H](C)CN([C@@H](C)CO)C2=O

The listing continues:
#	Ran importin	structure
51	-0.1	C[C@@H]1CN([C@H](C)CO)C(=O)c2cccc(NS(=O)(=O)c3ccccc3)c2O[C@@H]1CN(C)C(=O)Nc1ccccc1
52	-0.4	C[C@@H]1CN([C@@H](C)CO)C(=O)c2cc(NC(=O)CCC(F)(F)F)ccc2O[C@H]1CN(C)C
53	-3.0	C[C@H]1CN([C@@H](C)CO)C(=O)c2cc(NC(=O)NC3CCCCC3)ccc2O[C@H]1CN(C)C(=O)Nc1ccc2c(c1)OCO2
54	1.7	C[C@H]1CN([C@@H](C)CO)C(=O)Cc2cc(NC(=O)NC3CCCCC3)ccc2O[C@H]1CN(C)S(=O)(=O)c1cccs1
55	?	CC(C)NC(=O)N(C)C[C@H]1OCCCC[C@@H](C)Oc2ccc(NC(=O)CCC(F)(F)F)cc2C(=O)N([C@@H](C)CO)C[C@@H]1C
56	-1.5	C[C@@H]1CN([C@H](C)CO)C(=O)Cc2cc(NC(=O)c3ccncc3)ccc2O[C@@H]1CN(C)S(=O)(=O)c1ccccc1
57	-3.5	C[C@H]1CN([C@@H](C)CO)C(=O)CCCn2cc(nn2)CO[C@H]1CN(C)Cc1ccccc1
58	-1.7	C[C@H]1CN([C@@H](C)CO)C(=O)Cc2cc(NS(C)(=O)=O)ccc2O[C@H]1CN(C)C(=O)Nc1ccc(C(F)(F)F)cc1
59	1.2	C[C@@H]1CN([C@H](C)CO)C(=O)CCCn2cc(nn2)CO[C@@H]1CN(C)C(=O)Nc1ccccc1F
60	3.6	C[C@H](CO)N1C[C@H](C)[C@H](CN(C)C(=O)Nc2ccc(C(C)(C)C)cc2)OCc2cnnn2CCCC1=O
61	1.5	Cc1noc(C)c1NC(=O)N(C)C[C@H]1OCCCC[C@@H](C)Oc2ccc(NS(=O)(=O)c3cn(C)cn3)cc2C(=O)N([C@@H](C)CO)C[C@@H]1C
62	-0.9	C[C@@H]1CN([C@H](C)CO)C(=O)Cc2cc(NC(=O)CCN3CCOCC3)ccc2O[C@@H]1CN(C)S(=O)(=O)c1cccs1
63	1.4	C[C@@H]1CN([C@@H](C)CO)C(=O)c2cc(NC(=O)Cc3ccccc3)ccc2O[C@@H]1CN(C)CC1CC1
64	-1.3	C[C@@H]1CN([C@H](C)CO)C(=O)Cc2cc(NC(=O)CCN3CCOCC3)ccc2O[C@H]1CN(C)S(=O)(=O)c1cccs1
65	0.7	CC(C)NC(=O)N(C)C[C@@H]1OCCCC[C@H](C)Oc2ccc(NC(=O)Nc3ccc(C(F)(F)F)cc3)cc2C(=O)N([C@@H](C)CO)C[C@@H]1C
66	-5.1	C[C@@H]1CN([C@@H](C)CO)C(=O)c2cc(NC(=O)Nc3ccc(F)cc3)ccc2O[C@@H](C)CCCCO[C@@H]1CN(C)C(=O)Cc1ccccc1
67	-5.8	C[C@@H]1CN([C@H](C)CO)C(=O)c2cc(NS(C)(=O)=O)ccc2O[C@@H](C)CCCCO[C@@H]1CN(C)C
68	-2.3	C[C@H]1CN([C@@H](C)CO)C(=O)Cc2cc(NC(=O)c3ccncc3)ccc2O[C@@H]1CN(C)CC1CC1
69	-0.1	C[C@H](CO)N1C[C@H](C)[C@@H](CN(C)CC2CCCCC2)Oc2ccc(N(C)C)cc2C1=O
70	-3.4	C[C@H]1CN([C@@H](C)CO)C(=O)c2cccc(NC(=O)NC3CCCCC3)c2O[C@@H]1CN(C)S(=O)(=O)c1cn(C)cn1

4 entries from above, field by field.
(3) C[C@@H]1CN([C@@H](C)CO)C(=O)c2cc(NC(=O)Cc3ccccc3)ccc2O[C@H]1CN(C)C
- Ran importin = 1.5

(9) C[C@H]1CN([C@@H](C)CO)C(=O)c2cc(NC(=O)c3ccncc3)ccc2O[C@H]1CN(C)C(=O)NC1CCCCC1
- Ran importin = -1.6

(4) C[C@@H]1CN([C@@H](C)CO)C(=O)c2cc(NC(=O)Nc3ccc(F)cc3)ccc2O[C@H]1CN(C)C(=O)NC1CCCCC1
- Ran importin = -0.1

(22) C[C@@H]1CCCCO[C@@H](CN(C)S(=O)(=O)c2ccccc2)[C@H](C)CN([C@H](C)CO)C(=O)c2cc(NC(=O)CCCN(C)C)ccc2O1
- Ran importin = 2.3

More records:
#	Ran importin	structure
71	-8.6	C[C@H]1CN([C@@H](C)CO)C(=O)c2cccc(NS(=O)(=O)c3cccs3)c2O[C@H]1CN(C)C(=O)Nc1ccc(C(F)(F)F)cc1
72	2.3	C[C@H]1CN([C@@H](C)CO)C(=O)CCCn2cc(nn2)CO[C@H]1CN(C)C(=O)Nc1ccnc(N2CCOCC2)c1
73	-3.7	Cc1noc(C)c1S(=O)(=O)N(C)C[C@@H]1Oc2c(NC(=O)c3ccc(-c4nccs4)cc3)cccc2C(=O)N([C@@H](C)CO)C[C@H]1C
74	-1.7	COc1ccc(S(=O)(=O)N(C)C[C@H]2Oc3ccc(NS(=O)(=O)c4ccc(Cl)cc4)cc3C(=O)N([C@H](C)CO)C[C@H]2C)cc1
